PABP polyA inh – blocks human PABP binding to poly(A) RNA | P11940 | fluorescence polarization | inhibition, % at 35 µM | 290,000 tested, 1% active;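 active means 50% or more with normal probe brightness, or confirmed in later tests; inconclusive means above 50% with abnormal brightness, or retests that disagree; inactive means below 50% or failed in later tests; about a fifth of its hits are not listed in these tables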;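 further: calls also rest on retests at 20 µM and on dose response follow-up; controls were probe without protein and protein plus probe with vehicle; some compounds called inactive have numbers as strong as hits; many hits fall short of the cut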
Target sequence (P11940 whole entry, looked up): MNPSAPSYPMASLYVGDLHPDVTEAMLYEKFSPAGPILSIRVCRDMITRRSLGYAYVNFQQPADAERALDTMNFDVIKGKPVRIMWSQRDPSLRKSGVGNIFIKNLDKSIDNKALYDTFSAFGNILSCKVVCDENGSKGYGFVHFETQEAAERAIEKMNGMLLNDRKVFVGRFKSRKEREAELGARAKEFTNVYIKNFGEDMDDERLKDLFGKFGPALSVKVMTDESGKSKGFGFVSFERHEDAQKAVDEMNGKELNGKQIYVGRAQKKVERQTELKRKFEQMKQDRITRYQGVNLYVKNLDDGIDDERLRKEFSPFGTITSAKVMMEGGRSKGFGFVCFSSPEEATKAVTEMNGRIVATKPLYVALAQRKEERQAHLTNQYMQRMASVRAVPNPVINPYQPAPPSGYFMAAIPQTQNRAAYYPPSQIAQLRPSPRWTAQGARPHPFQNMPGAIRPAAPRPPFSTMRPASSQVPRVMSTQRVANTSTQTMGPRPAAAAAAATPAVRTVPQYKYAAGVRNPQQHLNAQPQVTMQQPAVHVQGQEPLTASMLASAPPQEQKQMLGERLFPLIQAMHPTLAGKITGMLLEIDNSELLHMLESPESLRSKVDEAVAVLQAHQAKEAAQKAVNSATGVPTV
Rce1 inh – inhibitors of yeast Ras-converting enzyme | 290,000 tested, 0.27% active | yeast membranes, quenched prenylated peptide cleavage fluorescence | calls only | AID 2563;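 active means fall in fluorescence gain of 50% or more versus controls, with final raw signal at or below 3038400; inconclusive means same 50% fall but final raw signal above 3038400; inactive means fall in fluorescence gain under 50%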;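 further: plate controls were neutral control wells for no effect and wells lacking membranes for full effect; tested at 10 µM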
Target sequence (Q03530 whole entry, looked up): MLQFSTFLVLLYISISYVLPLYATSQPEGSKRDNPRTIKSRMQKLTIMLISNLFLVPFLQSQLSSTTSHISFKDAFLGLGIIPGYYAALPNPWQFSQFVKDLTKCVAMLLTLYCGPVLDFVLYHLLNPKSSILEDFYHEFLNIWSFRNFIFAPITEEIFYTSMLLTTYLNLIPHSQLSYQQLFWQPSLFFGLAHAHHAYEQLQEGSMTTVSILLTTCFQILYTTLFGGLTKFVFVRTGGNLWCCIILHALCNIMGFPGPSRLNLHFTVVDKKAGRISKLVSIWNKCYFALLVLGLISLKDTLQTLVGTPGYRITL
Yeast UUG start – alters start codon recognition fidelity in yeast. 350,000 tested, 0.13% active. S. cerevisiae UUG-firefly luciferase reporter, luminescence/redox ratio. activity score, % at 18.7 µM;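 active means replicate mean at a twofold rise or more, about +100% in these data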;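 further: firefly luciferase made from a UUG start codon reports start codon fidelity; reporter light over untreated wells divided by growth signal over untreated wells; some hits fall short of that in this replicate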
MT1-MMP act inh – blocks activation of human MT1-MMP | GFP/RFP ratio change, % at 20 µM | 360,000 tested, 0.061% active | HT1080 RFP-PRO-GFP cells, GFP/RFP ratio fluorescence, overnight; percent of plate control window, DMSO zero | AID 651647;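 active means GFP/RFP ratio change of at least 30% with cell ATP level not reduced by more than half and red fluorescence within 50% of control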; further: strong numbers were not always called active
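Compound: 20 µM single dose, 1% DMSO / System: HT1080 RFP-PRO-GFP cells / Controls: DMSO and RFP-L50D-GFP cell wells / Read-out basis: GFP/RFP fluorescence ratio / Schedule: overnight compound exposure at 37 °C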
CSC inhib – blocks cancer stem cells; cancer stem cell-like cells viability, luminescence; AID 2717; 300,000 tested, 1.1% active; inhibition, % at 7.5 µM;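 active means mean at 75% or more and at least half the replicates too; inconclusive means mean and replicates disagree; tested in HMLE shEcad cells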;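 further: 0% = median of negative and 100% = median of positive control wells; the first replicate is given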
HIV Env fusion – inhibitors of HIV Env-mediated cell fusion. 360,000 tested, 1.1% active. AID 651610. inhibition, % at 12.3 µM. HeLa-JRFL Env/CEM21 cell fusion, luciferase;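 active means mean replicate inhibition score of at least 50 and every replicate individually at or above 50; inconclusive means only one of the two criteria met; inactive means mean below 50 and not all replicates reaching 50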;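 further: 0% = plate neutral controls and 100% = maraviroc near 300 nM; one replicate is shown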
eIF4H inh – inhibitors of RNA binding by human eIF4H; eIF4H fluorescence polarization binding assay; inhibition, % at 35 µM; 290,000 tested, 0.94% active;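 active means 50% or more with normal probe brightness, or confirmed in later tests; inconclusive means above 50% with abnormal brightness, or retests that disagree; inactive means below 50% or failed in later tests; about a fifth of its hits are not listed in these tables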;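 further: calls also rest on retests at 20 µM and on dose response follow-up; 0% = protein and probe with vehicle and 100% = probe without protein; strong numbers were not always called active; many hits fall short of the cut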
MT1-MMP act inh RFP – further read-out of MT1-MMP act inh, marked with its call; RFP signal change, %; measured here: RFP expression control read;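 0 = vehicle wells; hits needed this value within 50% of zero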
* marks the source's active call; other numbers are inactive results; i = inactive; ? = inconclusive; . = not tested or not shown; [ ] = another dose, or the depositor's remark. Some of the compounds tested. The share of hits here may be higher or lower than overall.

SMILES | PABP polyA inh | Rce1 inh | Yeast UUG start | MT1-MMP act inh | MT1-MMP act inh RFP | CSC inhib | HIV Env fusion | eIF4H inh
Cc1ccc(-n2nnnc2SCC(=O)N2CCc3ccccc3C2)cc1 | 18.6 | i | -4.3 | 3.9 | 1.2 | . | -34.8 | 1.8
NS(=O)(=O)c1ccc(NC(=S)NCc2cccc(Cl)c2)cc1 | 7.1 | i | . | 5.1 | 1.6 | -7.8 | . | 2.4
CCOC(=O)CN1C(=O)CSc2ccc(S(=O)(=O)N3CCOCC3)cc21 | -6.9 | i | -24.3 | -0.5 | 0.4 | -19.0 | -4.0 | -8.8
C#CCN1C=CC(=O)[C@@H](OC(=O)Nc2ccc(Br)cc2)[C@H]1c1ccccc1Br | . | . | -4.0 | -0.2 | 0.1 | . | -13.3 | .
Cc1ccc(-n2c(CSc3nc(C)cc(C)n3)nnc2SCC(=O)N2CCCC2)cc1 | 0.4 | i | -15.0 | 0.7 | 2.3 | -7.4 | -9.7 | 4.4
N#CCCNc1ccc(OCCC#N)cc1 | -9.3 | i | -14.1 | 4.2 | 7.9 | -18.8 | . | -7.1
Cc1c(N=C2NC(=O)C(CC(=O)Nc3ccccc3)S2)c(=O)n(-c2ccccc2)n1C (stereo unspecified) | 8.4 | i | -8.8 | 1.4 | 9.7 | -10.1 | . | 11.7
O=C(O)c1ccccc1C(=O)NCC(O)COc1ccc(Cl)cc1 (stereo unspecified) | -3.4 | i | . | 1.6 | 6.1 | 1.7 | -6.5 | 0.6
CCc1ccccc1NC(=S)N1CCN(c2ccccc2F)CC1 | 9.9 | i | -28.5 | -2.0 | -3.4 | 6.4 | 8.3 | -5.0
COc1cc(OC)cc(C(=O)NC2CC3CCC(C2)N3C)c1 (stereo unspecified) | . | . | -13.2 | -2.9 | 1.6 | -10.7 | . | .
COc1cccc(COc2nc3c(c(=O)n(C)c(=O)n3C)n2C)c1 | 2.1 | i | -11.5 | -0.2 | -0.9 | 2.4 | 2.2 | -7.2
COc1ccc(S(=O)(=O)N2CCC(C(=O)NCC(c3cccs3)N(C)C)CC2)cc1 (stereo unspecified) | 0.5 | i | -11.2 | 8.0 | 4.3 | -13.9 | -19.4 | -8.0
O=C(Nc1ccc2c(c1)OCO2)c1ccc2sc([C@H]3C[C@H](O)[C@@H](CO)O3)nc2c1 | . | . | 2.0 | 2.5 | 3.1 | . | -53.0 | .
COc1ccc(OC)c(S(=O)(=O)N/N=C\c2c[nH]c3ccccc23)c1 | 0.0 | i | -12.3 | -0.8 | -20.3 | 6.0 | 32.9 | -3.3
CCc1nc(CN2CCN(c3cc(C(F)(F)F)ccn3)CC2)c(C)[nH]1 | -11.6 | i | -8.6 | 6.0 | -7.8 | 39.2 | 6.8 | -2.3
CC(C)CC(N)c1csc(NC(=O)Nc2ccccc2Cc2ccccc2)n1 (stereo unspecified) | . | . | -2.4 | -5.7 | -0.9 | . | 49.2 | .
O=C(NC1(C(F)(F)F)NC(=O)N(Cc2ccccc2)C1=O)c1cccs1 (stereo unspecified) | . | i | 8.1 | 1.9 | -1.4 | 3.3 | -49.7 | .
COc1cccc(C(=O)CSc2nc3ccccc3n2CC(=O)N(C(C)C)C(C)C)c1 | 14.2 | i | -3.0 | 8.6 | 2.9 | 10.1 | . | 9.9
CN(c1ccccc1)S(=O)(=O)c1ccc(NC(=O)c2nc(S(C)(=O)=O)ncc2Cl)cc1 | -4.3 | i | -8.2 | 1.4 | 4.9 | -9.1 | -26.2 | -1.6
O=C(OCC(=O)N1CCOCC1)c1cnc(Cl)c(Cl)c1 | . | . | -20.5 | 4.3 | 4.7 | . | -5.7 | .
CCN1C(=O)c2cccc3c(S(=O)(=O)Nc4ccc(O)c(C(=O)O)c4)ccc1c23 | 22.3 | i | 5.0 | 0.4 | 2.2 | 1.7 | -5.4 | -6.1
COc1ccc(C(c2sc3nc(C)nn3c2O)N2CCN(Cc3ccccc3)CC2)cc1OC (stereo unspecified) | 8.4 | i | -17.6 | -1.2 | -0.7 | 0.5 | 12.3 | 6.7
CCOc1ccc(Oc2nc(N(CC)CC)nc(N3CCOCC3)n2)nn1 | 3.0 | i | . | -0.6 | -1.4 | -4.3 | -20.2 | -0.7
CC(=O)c1sc(NC(=O)c2cnc(Cl)c(Cl)c2)nc1C | 10.6 | i | -18.7 | -1.7 | -2.1 | -5.7 | -32.4 | 5.7

Copied from the list:
Result for C#CCN1C=CC(=O)[C@@H](OC(=O)Nc2ccc(Br)cc2)[C@H]1c1ccccc1Br in MT1-MMP act inh: -0.2
Result for CCN1C(=O)c2cccc3c(S(=O)(=O)Nc4ccc(O)c(C(=O)O)c4)ccc1c23 in HIV Env fusion: -5.4

(further entries)
SMILES | PABP polyA inh | Rce1 inh | Yeast UUG start | MT1-MMP act inh | MT1-MMP act inh RFP | CSC inhib | HIV Env fusion | eIF4H inh
COc1ccc(C(=O)COC(=O)c2cncc(Br)c2)cc1 | . | . | -8.6 | -6.2 | -3.5 | . | -6.8 | .
COC(C[C@@H](O)[C@H](C)[C@H](O)COCc1ccccc1)OC | 1.7 | i | -15.5 | -2.3 | 4.3 | . | -18.1 | -11.7
CCc1ccc(-c2nc(CN3CCC(C(=O)NCc4ccccc4OC)CC3)c(C)o2)cc1 | -11.2 | i | -17.0 | 1.9 | -3.2 | 5.5 | -3.9 | -3.9
CC(C)[C@H](NC(=O)N1CCn2c1nc1ccccc12)C(=O)NCc1ccccc1Cl | -12.3 | i | -8.4 | 0.1 | -3.3 | -14.7 | 13.3 | -18.3
Cc1ccc(C(=O)CCC(=O)NC2=NCCS2)cc1 | . | . | -10.3 | -2.0 | 0.9 | . | -3.6 | .
Cc1cc(C(=O)Nc2ccc(S(=O)(=O)Nc3nccs3)cc2)c(C)o1 | -1.2 | i | 14.7 | -4.9 | 3.3 | 3.9 | -22.3 | -15.9
COc1ccc(CCC(=O)N2CCN(c3ccccc3)CC2)cc1OC | -10.8 | i | -4.4 | 4.6 | 5.2 | 5.2 | 15.3 | 0.1
COc1cccc(CNC(=O)CSc2cc(=O)n(C)c3ccccc23)c1 | -0.6 | i | . | 0.8 | 3.3 | -18.4 | 1.3 | -3.5
CCOC(=O)N1CCN(S(=O)(=O)c2cc(Br)cnc2N)CC1 | -2.1 | i | -11.9 | -1.7 | 0.7 | 2.0 | . | -6.5
Cc1cc(=O)oc2cc(Oc3ccc(C(N)=O)cc3[N+](=O)[O-])ccc12 | 2.7 | i | . | 2.5 | 2.6 | 8.6 | -8.8 | 4.0
CCOC(=O)[C@@H]1[C@H]2COc3cc(OC)ccc3[C@H]2N2C(=O)N(c3ccc(F)cc3)C(=O)[C@@]12C | -5.9 | i | -7.4 | -2.0 | -0.2 | 9.2 | -14.9 | -5.3
CC(=O)Nc1ccc(S(=O)(=O)Nc2c(NC3CCCCC3)c3ccccc3oc2=O)cc1 | -4.2 | i | -11.2 | -6.3 | -4.1 | 9.9 | 1.7 | -3.0
Fc1ccc(-c2c[nH]c(=S)n2Cc2ccccc2)cc1 | 1.1 | i | . | -1.6 | -1.4 | -0.8 | -16.5 | 3.4
CC1(C)Cc2c(c(N3CCOCC3)nc3sc(C(=O)Nc4cccc(Cl)c4)c(N)c23)CO1 | 5.1 | i | -12.6 | 7.0 | 3.2 | -0.6 | 1.4 | -6.6
CC1(c2ccc3c(c2)OCCCO3)NC(=O)N(CC(=O)NCCc2ccc(F)cc2)C1=O (stereo unspecified) | . | . | -19.8 | 3.7 | 4.1 | . | -253.3 | .
O=c1oc2cc(OCc3c(F)cccc3Cl)ccc2cc1-c1ccccn1 | . | i | . | -1.4 | -9.5 | 6.6 | . | .
Cc1cc(C)n(CCC(=O)N/N=C/c2ccc(Br)c([N+](=O)[O-])c2)n1 | -11.1 | i | -19.9 | 0.3 | 1.7 | -2.7 | -2.7 | 1.1
O=C(O)CNc1ncccc1[N+](=O)[O-] | -4.0 | i | 23.9 | -0.8 | 1.0 | 5.6 | -4.2 | -0.1
COc1ccc2cc(N=Cc3nc(-c4ccc(C)cc4)oc3O)cnc2c1 | 9.1 | i | . | 2.0 | 7.5 | 4.1 | -25.3 | ?
CC1Cc2cc(/C(O)=C3\C(=O)C(=O)N(CCN(C)C)C3c3ccccc3F)ccc2O1 (stereo unspecified) | -7.2 | i | 2.1 | 1.0 | 6.8 | 3.6 | -85.2 | -2.1
COc1ccc(CC(=O)NNC(=S)NC(=O)c2cccnc2)cc1 | 26.8 | i | -15.2 | 1.4 | 0.9 | 1.9 | 5.7 | 0.2
COc1cc(OC)c(NC(=O)CCCn2c(=O)oc3ccccc32)cc1Cl | -6.7 | i | . | 3.1 | 3.4 | -1.5 | . | -1.3
Cc1cc(C)nc(NC(N)=NCCc2c[nH]c3ccccc23)n1 | 7.5 | i | -21.0 | -12.1 | -7.0 | -2.5 | -2.3 | -5.1
CN(C)C(=O)C[C@@H]1C=C[C@@H](NC(=O)C2CCC2)[C@@H](CO)O1 | . | . | -3.4 | -0.5 | 4.0 | . | 18.7[16.7 µM] | .
O=C(C=CC(=O)OC1CCCCC1)OC1CCCCC1 | . | . | -13.1 | -1.9 | 5.7 | . | -12.1 | .
CCOc1ccc(N(C(=O)CNC(=O)c2cccs2)C(C(=O)NCC2CCCO2)c2ccc(OC)c(OC)c2)cc1 (stereo unspecified) | 1.3 | i | . | -3.1 | 2.2 | -7.6 | 15.9 | -10.4
CC(NC(=O)c1ccc2nc[nH]c2c1)c1ccccc1 (stereo unspecified) | 1.9 | i | . | 1.5 | 0.4 | -0.1 | -14.2 | -1.8
O=[n+]1c2c(n([O-])c3ccccc31)CCC2 | 2.1 | i | -15.8 | -4.7 | 2.7 | -9.2 | . | 2.1
COc1ccc(O)c(C(=O)c2cc(C#N)c(=O)n(Cc3ccccc3)c2)c1 | -14.4 | i | . | -9.1 | -7.8 | -2.6 | -3.3 | -4.5
CC(C(=O)Nc1ccc(S(=O)(=O)N2CCOCC2)cc1)N1C(=O)C2CC=CCC2C1=O (stereo unspecified) | 3.7 | i | . | 2.7 | 6.8 | -0.4 | 1.5 | -7.9
CC(C)(C)NCc1cc(Cl)ccc1OCc1cccs1 | 1.2 | i | -32.8 | -0.9 | -1.2 | 3.1 | 6.9 | -11.4
O=C(CCNS(=O)(=O)c1cccc2nsnc12)NCc1ccccc1Cl | -11.6 | i | -13.8 | -2.6 | -2.4 | -5.9 | 6.3 | 40.4
COc1cc(S(=O)(=O)N2CCCCCC2)c(OC)cc1Br | 8.9 | i | -12.7 | -0.4 | -2.1 | 78.6* | -15.3 | -8.1
O=c1nc(N/N=C/C=C/c2ccccc2)cn[nH]1 | 9.5 | . | . | 3.7 | 5.2 | 0.2 | -4.8 | 4.2
CCOC(=O)C1CCN(C(=O)c2ccc(N3CCOCC3)c([N+](=O)[O-])c2)CC1 | . | . | -23.6 | -0.8 | 3.5 | -6.2 | 3.3 | .
CN(C)C=Nc1ccc2nn(-c3ccccc3)nc2c1 | -0.9 | ? | -8.5 | 0.5 | 0.9 | -9.2 | -369.7 | 7.0
O=C(CSc1ccc(F)cc1)NC(=O)c1ccccc1 | . | . | 5.1 | 3.3 | 9.0 | . | 23.0 | .
COc1ccc(CN(C)C(C)C(=O)Nc2cccc3ccccc23)cc1 (stereo unspecified) | -0.9 | i | . | -1.4 | 0.2 | -4.6 | 15.9 | 5.7
COC(=O)C1(Cc2cc(-c3ccccc3)no2)CCN(C(=O)OC(C)(C)C)CC1 | 3.3 | i | 0.8 | 1.4 | -5.6 | 19.6 | -3.7 | 2.7

Bioassay records (PubChem BioAssay)
